Compound activity deposited in PubChem BioAssay by ICCB-Longwood Screening Facility, Harvard Medical School.
PV pol inh: poliovirus RdRp elongation inhibitors, primary screen, biochemical, fluorescence polarization, total intensity; Genome polyprotein (Poliovirus type 1 (strain Mahoney)), P03300; poliovirus polymerase elongation; active compounds read low; % elongation, % (compound at 16.7 µg/mL); 150,000 compounds, 0.66% hits; AID 588519, 2011; in the data active = % elongation below about 90%; note: some results filed as inactive read as strong as hits
Target sequence (P03300 1749-2209 limits assumed): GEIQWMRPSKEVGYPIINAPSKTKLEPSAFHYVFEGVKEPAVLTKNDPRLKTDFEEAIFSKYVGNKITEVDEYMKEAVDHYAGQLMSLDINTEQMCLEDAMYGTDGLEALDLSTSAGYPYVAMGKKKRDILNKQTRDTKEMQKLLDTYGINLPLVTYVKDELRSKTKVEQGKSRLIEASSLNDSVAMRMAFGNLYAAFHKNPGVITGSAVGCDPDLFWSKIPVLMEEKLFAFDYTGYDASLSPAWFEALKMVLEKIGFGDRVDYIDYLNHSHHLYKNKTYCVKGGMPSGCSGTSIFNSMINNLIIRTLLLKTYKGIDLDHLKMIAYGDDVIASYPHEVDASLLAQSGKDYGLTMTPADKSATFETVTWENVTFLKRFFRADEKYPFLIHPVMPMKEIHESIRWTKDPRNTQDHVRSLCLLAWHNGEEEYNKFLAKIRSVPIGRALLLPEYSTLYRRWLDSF
MbtI inh: MbtI salicylate synthase inhibitors, primary screen, biochemical, fluorescence intensity | P9WFX0 | inhibition, %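 (about 17 µg/mL by stock and volumes)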 | 100,000 compounds, 0.89% hits | purified MbtI enzyme, fluorescence intensity read-out;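 active = above 50% in both replicates, above 80% if mildly self-fluorescent; inactive = the rest, strongly fluorescent compounds included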;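 note: 0% = mean of negative and 100% = mean of positive controls; one replicate is shown; some compounds called inactive have numbers as strong as hits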
Mtb MenB inh: M. tuberculosis MenB inhibitors, primary screen, biochemical, absorbance; 1,4-dihydroxy-2-naphthoyl-CoA synthase (Mycobacterium tuberculosis (strain ATCC 25618 / …; MenB enzyme assay, absorbance read-out; some hits fall short of the stated cut; inhibition, %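 (about 12 µg/mL by stock and volumes)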; 100,000 compounds, 0.43% hits; AID 540299, 2011;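 active = mean of two replicates above 30%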;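 note: 0% = no compound and 100% = wells with inactive enzyme; the first replicate is given; strong numbers were not always called active; inactives centre near -10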
Target sequence (P9WNP5 whole entry, looked up): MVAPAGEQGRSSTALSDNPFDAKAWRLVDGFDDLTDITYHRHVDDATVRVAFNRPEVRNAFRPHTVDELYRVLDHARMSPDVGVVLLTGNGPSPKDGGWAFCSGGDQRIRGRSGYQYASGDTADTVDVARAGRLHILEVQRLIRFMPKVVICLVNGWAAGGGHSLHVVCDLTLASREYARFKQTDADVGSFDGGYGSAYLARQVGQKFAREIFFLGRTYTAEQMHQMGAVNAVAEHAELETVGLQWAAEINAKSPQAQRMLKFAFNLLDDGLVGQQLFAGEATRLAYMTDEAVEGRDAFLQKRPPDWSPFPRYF
PV pol inh intensity: second read-out of PV pol inh, no call of its own (marks repeat the call); % elongation; measured here: total intensity read-out; formula for this scale not given here;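 total fluorescence in place of polarization; lower means less elongation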
* hit, by the source's call; i = inactive; . = no result given.

SMILES | PV pol inh | PV pol inh intensity | MbtI inh | Mtb MenB inh
COC(=O)N/N=C(\C)c1ccc2c(c1)Nc1ccccc1S2 | 105 | 115 | 12 | -38
CC(C)(C)C(=O)Nc1ccc2nn(-c3ccccc3)nc2c1 | 102 | 105 | i | -20
COc1ccc(Cn2nnnc2CN(Cc2cccs2)Cc2cc3ccc(OC)cc3[nH]c2=O)cc1 | 103 | 104 | 22 | 28
O=C(COC(=O)C1CCC1)c1ccc(F)cc1 | 103 | 98 | 7 | 18
Cn1ncc(S(=O)(=O)Cc2ccccc2)c(Cl)c1=O | 98 | 101 | 90* | 4
c1ccc(C2SCCN2c2ccccc2)cc1 (stereo unspecified) | 104 | 101 | -6 | 11
COc1ccc(CC(=O)N2CCN(c3ccccc3OC)CC2)cc1 | 109 | 133 | . | -18
COc1ccccc1Nc1nc2ccccc2s1 | 102 | 103 | -2 | .
CC1CCCC(C)N1C(=O)COC(=O)c1ccc(S(=O)(=O)N2CCCC2)cc1 (stereo unspecified) | 98 | 108 | -9 | 3
CC(=O)Oc1c(-c2ccco2)oc2ccccc2c1=O | 102 | 104 | i | -16
O=C(CSc1nnc(-c2ccccc2Br)o1)NC(=O)NC1CCCC1 | 103 | 104 | -2 | -9
O=C(c1cn(-c2ccccc2)nc1-c1cccs1)N1CCN(c2ccccc2)CC1 | 106 | 101 | 49 | -4
COCCN1C(=O)c2ccccc2C(C(=O)NCC2CCCO2)C1c1cccs1 (stereo unspecified) | 105 | 98 | 7 | 7
COc1ccc(Cl)cc1C(=O)NCc1ccco1 | 102 | 102 | 5 | -11
CN(C)C=Nc1ncc2c([nH]c3ccccc32)c1C#N | 103 | 98 | -7 | 8
Cc1ccc(C)c(N2C(=O)c3ccc(C(=O)OCC#N)cc3C2=O)c1 | 105 | 106 | -10 | -24
CCOc1cccc(OCC)c2c(C)[n+](C)c(C)c1-2 | 97 | 115 | 15 | -28
Cc1c(C)c2ccc(OC(=O)c3cccs3)cc2oc1=O | 97 | 101 | -82 | -38
COc1ccc(NS(=O)(=O)c2cccc(-c3nnc4n3CCCCC4)c2)cc1 | 103 | 106 | -5 | 1
O=C(Cn1c(=O)c2ccccc2n(CC(=O)Nc2ccc(Br)cc2)c1=O)NCc1ccco1 | 103 | 101 | -3 | -3
CCc1ccc(-c2csc(NC(=O)CCC(=O)N3CCN(C(C)=O)CC3)n2)cc1 | 105 | 108 | -9 | -20
N#Cc1c(O)c2ccccc2[nH]c1=O | 101 | 101 | 39 | -12
OCC#CCSc1nc2ccccc2s1 | 103 | 103 | 6 | -17
C/C=C1\NC(=S)N(c2ccccc2)C1=O | 104 | 102 | 22 | 1
O=C(O)CCCCC1CCSS1 (stereo unspecified) | 101 | 100 | 1 | -1

Reprinted at random: 4 compounds from above.
SMILES | PV pol inh | PV pol inh intensity | MbtI inh | Mtb MenB inh
COc1ccccc1Nc1nc2ccccc2s1 | 102 | 103 | -2 | .
OCC#CCSc1nc2ccccc2s1 | 103 | 103 | 6 | -17
O=C(Cn1c(=O)c2ccccc2n(CC(=O)Nc2ccc(Br)cc2)c1=O)NCc1ccco1 | 103 | 101 | -3 | -3
COc1ccc(Cn2nnnc2CN(Cc2cccs2)Cc2cc3ccc(OC)cc3[nH]c2=O)cc1 | 103 | 104 | 22 | 28

More entries follow:
SMILES | PV pol inh | PV pol inh intensity | MbtI inh | Mtb MenB inh
COc1ccc(S(N)(=O)=O)cc1C(=O)OCc1nc2ccccc2s1 | 102 | 107 | 7 | -6
O=C(NC1CCCC1)C1CCCN1S(=O)(=O)c1cccc2cccnc12 (stereo unspecified) | 102 | 104 | -12 | 2
CCOc1ccc(/C=C(\C#N)C(N)=C(C#N)C#N)cc1 | 109 | 117 | -7 | -57
CCN(CC)CCSc1nc2ccccc2n1Cc1ccccc1 | 103 | 102 | -4 | 12
COc1ccc(/C=N/C2=NNC(=O)C(CC(=O)O)S2)cc1 (stereo unspecified) | 97 | 101 | . | -1
COC(=O)CCS(=O)(=O)c1cccc2c(S(=O)(=O)CCC(=O)OC)cccc12 | 101 | 106 | 0 | -4
CSC1=NCCN1S(=O)(=O)c1ccccc1 | 102 | 104 | -3 | -1
c1ccc(N2CCN(c3ncnc4sccc34)CC2)nc1 | 103 | 111 | -26 | -24
COc1ccc(NC(=O)c2cn(CCC#N)nc2-c2ccc(OC)cc2)cc1 | 100 | 100 | -7 | -14
O=C(NCCN1CCOCC1)c1ccc(I)cc1 | 100 | 103 | -19 | -27
Cc1nn(-c2ccccc2)c2sc(C(=O)OCC(=O)N3CCCC3)cc12 | 99 | 104 | 10 | 7
CNC12CC3CC(CC(S)(C3)C1)C2 | 105 | 108 | 6 | -1
COC(=O)c1ccccc1NC(=O)NC(C)(C)C | 100 | 100 | i | -16
CN(Cc1ccco1)C(=O)c1ccc2c(c1)N(Cc1cccc(F)c1)C(=O)c1ccccc1S2 | 103 | 99 | -2 | -5
COc1ccccc1NC(=O)CCSc1cccc2cccnc12 | 104 | 98 | . | -13
Cc1ccc(OC(C)C(=O)NC(C)(C#N)C(C)C)cc1 (stereo unspecified) | 97 | 104 | 6 | -2
c1ccc(-c2nnc(CSc3nnc4n3CCCCC4)o2)cc1 | 101 | 104 | 1 | 2
O=C(CSC1CCCC1)Nc1ccccc1Br | 101 | 105 | -7 | .
O=C(CSc1nc2c(sc(=S)n2-c2ccccc2)c(=O)n1Cc1ccco1)NC1CCCCC1 | 102 | 98 | 14 | -24
CC(C(=O)OCc1nnc(-c2ccccc2)o1)N1C(=O)c2ccccc2C1=O (stereo unspecified) | 103 | 110 | 7 | -24
CCOc1ccc(/C=C/C(=O)N(C)Cc2ccccc2)cc1OC | . | . | -4 | -17
CCCS(=O)(=O)N1CCCC(C(=O)NC)C1 (stereo unspecified) | 102 | 109 | -2 | -8
COc1ccc(NC2=NCCC2)cc1 | 105 | 89 | -8 | -7
O=C(c1ccco1)N1CCN(C(=O)C(c2ccccc2)N2Cc3ccccc3C2=O)CC1 (stereo unspecified) | 101 | 103 | -10 | 15
CCN(CC)c1ccc(NC(=O)CNc2ccc(F)cc2F)cc1 | 100 | 99 | 1 | 0

SMILES | PV pol inh | PV pol inh intensity | MbtI inh | Mtb MenB inh
CCN(CC)c1ccc(C(=O)OCc2c(C)noc2C)cc1 | 100 | 102 | -11 | -20
Cc1ccc2c(c1)c1c3n2CC(O)CN=C3CCC1 (stereo unspecified) | 102 | 102 | 15 | -28
Cc1nnc(SCC(=O)N(C)C2CCCCC2)s1 | 104 | 102 | -17 | -5
O=C(OCC(=O)N1CCCCC1)c1ccccc1SCC(=O)N1CCCCC1 | 99 | 104 | -1 | -1
CSc1sc(SC)c(COC(C)=O)c1COC(C)=O | 98 | 103 | -4 | -30
Cc1ccc(-n2nc(C(=O)O)c(C)c(C#N)c2=O)cc1C | 101 | 99 | 16 | -24
Cc1nc(Sc2nnc3sc4ccccc4n23)c2c3c(sc2n1)CCC3 | 101 | 98 | 3 | 12
c1ccc(-c2nnnn2CCOCCn2nnnc2-c2ccccc2)cc1 | 96 | 102 | 11 | 3
COc1ccc(OC)c(CCNC(=O)CCc2nc3ncccc3c(=O)n2Cc2ccccc2)c1 | 100 | 104 | 0 | 4
CC1CCC(C(C)C)C(OCC(O)C[N+]2(C)CCCCC2)C1 (stereo unspecified) | 103 | 105 | -2 | 6
Cc1ccc(CSc2nc(C(=O)O)ccc2C#N)cc1 | 99 | 96 | . | -13
Cc1[nH]c2c(C)cccc2c1CCN | 100 | 104 | 13 | 11
CN(C(=O)c1cc2c(s1)-c1ccccc1S(=O)(=O)C2)c1ccccc1 | 104 | 105 | 5 | -11
COCC(C)N=C1NN=C(c2c[nH]c3ccccc23)CS1 (stereo unspecified) | 103 | 104 | 9 | -6
COc1ccc(N2CCN(CC(=O)N(C)C)CC2)cc1 | 101 | 103 | 5 | 31
CN(C)S(=O)(=O)c1cccc(C(=O)N2C(=O)c3cccc(N)c3C2=O)c1 | 61 | 112 | 34 | -34
COc1cc(-c2nc3ccccn3c2/N=C/c2sccc2C)ccc1O | 97 | 94 | 12 | -83
CCC(=O)N(CCC(c1ccco1)c1ccccc1OC)Cc1cccs1 (stereo unspecified) | 101 | 106 | 96 | -31
CCc1ccc(NC(=O)c2nc(S(C)(=O)=O)ncc2N(Cc2ccc(C)cc2)Cc2ccco2)cc1 | 102 | 99 | -2 | 18
CCCCOC(=O)c1ccccc1Nc1ccn2c(=O)c3ccccc3nc2n1 | 101 | 107 | 6 | -3
COCC(=O)Nc1c(C(=O)Nc2ccc(C)c(C)c2)oc2ccccc12 | 100 | 102 | 18 | -4
CC(NC(=O)c1ccccc1)c1nc2ccccc2n1C(C)C (stereo unspecified) | 103 | 113 | 2 | 13
COc1cc2c(cc1OC)C(c1ccccc1)N(C(=O)CSc1nc3ccccc3o1)CC2 (stereo unspecified) | 100 | 102 | -9 | -19
C(=Nc1cccc2ccccc12)c1c[nH]c2ccccc12 | 93 | 99 | 103 | 6
O=C(Nc1ccc(Cl)c(Cl)c1)NC1CCCCC1 | 107 | 112 | . | -13

SMILES | PV pol inh | PV pol inh intensity | MbtI inh | Mtb MenB inh
Cc1ccc(CNC(=O)CCSCc2ccc(C)cc2)cc1 | 104 | 107 | 6 | -12
Cn1cnnc1SCc1cc(=O)c(OCc2cccc(F)c2)co1 | 100 | 106 | 5 | -14
N#CC(C(=O)COc1ccccc1)c1ccccc1 (stereo unspecified) | 102 | 101 | 54* | -10
CC(C)CNC(=O)Cn1nc(C(F)(F)F)c2c1CCCC2 | 99 | 104 | -5 | 5
NC(=O)COC(=O)c1ccccc1OCc1ccc(F)cc1 | 107 | 110 | 45 | -2
CCn1c(=O)n(CC)c2cc(S(=O)(=O)N3CCOCC3)ccc21 | 104 | 106 | . | 10
O=S(=O)(NCCc1cn2ccccc2n1)c1ccc2c(c1)CCCC2 | 102 | 100 | -29 | -12
CCC(C)NC(=O)C1CCCN(S(=O)(=O)N2CCC(C)CC2)C1 (stereo unspecified) | 102 | 106 | 2 | 10
Cc1cc(-c2ccccc2)[n+]2nc(N)sc2n1 | 103 | 105 | 37 | .
Cc1ccc(SC(C)C(=O)Nn2cnnc2)cc1 (stereo unspecified) | 103 | 101 | -11 | -32
CCCCOc1ccc(C2(C)NC(=O)N(C)C2=O)cc1 (stereo unspecified) | 102 | 102 | -1 | 30
CSc1ccccc1NC(=O)CN1CCC(C)CC1 | . | . | -4 | -12
CCOC(=O)C1CCN(C(=O)CCCCn2c(=O)[nH]c3ccccc3c2=O)CC1 | 102 | 100 | 102 | -22
COc1ccc(CCN2COc3c(cc4c(-c5ccccc5)cc(=O)oc4c3C)C2)cc1 | 105 | 108 | -1 | -38
Cc1cc(Cl)nc(Cl)c1C(=O)NC(=O)NC(C)(C)C | 106 | 110 | . | -15
CCOC(=O)c1cc(CC)sc1NC(=S)Nc1ccccc1C(F)(F)F | 107 | 115 | -12 | -8

In the list so far, 15 have an aryl thioether with sulfur outside any ring.
SMILES | PV pol inh | PV pol inh intensity | MbtI inh | Mtb MenB inh
O=C(CSc1nnc(-c2ccccc2Br)o1)NC(=O)NC1CCCC1 | 103 | 104 | -2 | -9
OCC#CCSc1nc2ccccc2s1 | 103 | 103 | 6 | -17
CCN(CC)CCSc1nc2ccccc2n1Cc1ccccc1 | 103 | 102 | -4 | 12
COc1ccccc1NC(=O)CCSc1cccc2cccnc12 | 104 | 98 | . | -13
c1ccc(-c2nnc(CSc3nnc4n3CCCCC4)o2)cc1 | 101 | 104 | 1 | 2
O=C(CSc1nc2c(sc(=S)n2-c2ccccc2)c(=O)n1Cc1ccco1)NC1CCCCC1 | 102 | 98 | 14 | -24
Cc1nnc(SCC(=O)N(C)C2CCCCC2)s1 | 104 | 102 | -17 | -5
O=C(OCC(=O)N1CCCCC1)c1ccccc1SCC(=O)N1CCCCC1 | 99 | 104 | -1 | -1
CSc1sc(SC)c(COC(C)=O)c1COC(C)=O | 98 | 103 | -4 | -30
Cc1nc(Sc2nnc3sc4ccccc4n23)c2c3c(sc2n1)CCC3 | 101 | 98 | 3 | 12
Cc1ccc(CSc2nc(C(=O)O)ccc2C#N)cc1 | 99 | 96 | . | -13
COc1cc2c(cc1OC)C(c1ccccc1)N(C(=O)CSc1nc3ccccc3o1)CC2 (stereo unspecified) | 100 | 102 | -9 | -19
Cn1cnnc1SCc1cc(=O)c(OCc2cccc(F)c2)co1 | 100 | 106 | 5 | -14
Cc1ccc(SC(C)C(=O)Nn2cnnc2)cc1 (stereo unspecified) | 103 | 101 | -11 | -32
CSc1ccccc1NC(=O)CN1CCC(C)CC1 | . | . | -4 | -12
